High-throughput results (PubChem BioAssay)
TRPV1 PAM: potentiators of human vanilloid receptor 1 (TRPV1). 0.02% of 320,000 active. potentiation, % at 8.33 µM. Q8NER1. AID 540277. TRPV1-expressing cells, Fluo-8 calcium influx, capsaicin EC20 potentiation; host cell line not named in the record; control for the full effect not named in the record; active means potentiation above 80%; inconclusive means 30% to 80%; inactive means below 30%; further: 0% is about no effect
Target sequence (Q8NER1 whole entry, looked up): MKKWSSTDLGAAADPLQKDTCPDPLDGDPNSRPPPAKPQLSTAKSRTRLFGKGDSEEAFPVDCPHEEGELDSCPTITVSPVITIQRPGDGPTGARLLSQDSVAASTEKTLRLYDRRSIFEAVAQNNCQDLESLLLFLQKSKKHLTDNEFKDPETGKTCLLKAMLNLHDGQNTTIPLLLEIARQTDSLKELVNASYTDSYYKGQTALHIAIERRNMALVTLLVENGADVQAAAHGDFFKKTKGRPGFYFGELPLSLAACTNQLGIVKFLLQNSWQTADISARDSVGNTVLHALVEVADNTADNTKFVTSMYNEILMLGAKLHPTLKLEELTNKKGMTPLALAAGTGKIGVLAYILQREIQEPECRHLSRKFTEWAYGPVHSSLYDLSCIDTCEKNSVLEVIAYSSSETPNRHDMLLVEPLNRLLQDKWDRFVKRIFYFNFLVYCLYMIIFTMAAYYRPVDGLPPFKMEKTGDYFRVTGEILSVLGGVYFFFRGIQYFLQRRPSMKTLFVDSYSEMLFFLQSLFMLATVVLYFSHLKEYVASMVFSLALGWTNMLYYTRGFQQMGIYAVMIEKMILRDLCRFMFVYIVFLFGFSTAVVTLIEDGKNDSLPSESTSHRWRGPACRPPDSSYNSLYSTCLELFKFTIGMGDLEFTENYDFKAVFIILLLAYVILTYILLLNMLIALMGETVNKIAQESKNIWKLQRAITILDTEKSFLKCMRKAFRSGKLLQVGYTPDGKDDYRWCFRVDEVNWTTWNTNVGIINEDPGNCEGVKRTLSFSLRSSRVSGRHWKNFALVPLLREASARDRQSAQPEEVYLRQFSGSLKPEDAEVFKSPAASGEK
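TRPV1-expressing cells were cultured overnight at 35.5C and loaded with Fluo-8 calcium dye for 40 to 90 min at room temperature. After a 10 s baseline, compound was added and calcium influx was read kinetically for 3 min (ex 480/em 520 nm).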
D2 PAM: potentiates the human D2 dopamine receptor allosterically; DiscoveRx D2 beta-arrestin cells, luminescence, 90 min; 100% = 57 uM dopamine signal; potentiation, % (test concentration not listed); 0.23% of 360,000 active; AID 624464; active = potentiation of 50% or more; inconclusive = 30% to 50%; inactive = 30% or less;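 further: compound concentration not given in the record; tested on top of an EC20 dose of dopamine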
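PathHunter beta-arrestin assay in DiscoveRx D2 cells. Compounds were added with an EC20 of dopamine (50 nM final) for 90 min at 37 deg C. Luminescence was read 1 h after detection reagent, with 57 uM dopamine as the EC100 control.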
Sfp PPTase inh: inhibitors of Bacillus subtilis Sfp phosphopantetheinyl transferase; Q9F4F7; Biochemical Sfp PPTase activity, qHTS; AID 1490; Potency, µM, without a hit: max response, negative = inhibition, most hits filed as inhibitors; 3.5% of 310,000 active; active means well fitted inhibition curve with a large enough effect; inconclusive means small, poorly fitted or top-dose-only effect, or another doubt; inactive means no such curve, though single readings can be large or run the other way;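 further: the enzyme is Sfp with the accession as filed and its product quenches rhodamine fluorescence; potency means the concentration at half of the fitted maximal effect; 0% = enzyme reaction without inhibitor and -100% = no enzyme wells; top concentration of the series not given in the record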
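Step 1, compound plus 15 nM Sfp-PPTase, 15 min, room temperature. Step 2, add rhodamine-CoA (5 uM) and BHQ-2-YbbR (12.5 uM). Step 3, read 525/598 nm fluorescence at 0 and 30 min.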
CtBP-E1A blk: blocks the CtBP interaction with E1A. AlphaScreen GST-E1A/His-CtBP binding, 1536-well; hits give low values; control for the full effect not named in the record. activity change, % (concentration not given with the values). 0.49% of 340,000 active. AID 651724; in the data active means activity change below about -65%; inconclusive means about -30% to -65%; inactive means above about -30%; further: on the % scale 0 is the no-effect control and ±100 the full control effect
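GST-E1A and His-tagged CtBP (125 nM each as 5X stock) were preincubated with pin-transferred compound for 2 h at 37 °C in the dark, then glutathione donor and nickel acceptor beads were added for 1 h before AlphaScreen reading.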
PINK1 modulator: PINK1 expression modulation. 0.2% of 410,000 active. Potency, µM (doses to about 76.6 µM), without a hit: at the top dose activation (PINK1 increase), actives largely listed as activators. PINK1 immunofluorescence, high-content cytometry, 24 h; active = well fitted activation curve with a large enough effect; inconclusive = small, poorly fitted or top-dose-only effect; inactive = flat fitted curve, though single readings scatter; cell line not stated here;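 further: potency means the concentration at half of the fitted maximal effect; % of control where 0% means no effect; nearly all actives have a fitted effect of over 65% in size; a mitochondrial uncoupler was the plate control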
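PINK1 protein level read as immunofluorescence by microplate cytometer in a fixed, stained stable cell line after 24 h exposure to five compound concentrations, with CCCP as control.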
D2 ag: activates the human D2 dopamine receptor. P14416. DiscoveRx PathHunter D2 beta-arrestin, luminescence, 90 min; 100% = 57 uM dopamine signal. activation, % (test concentration not listed). 0.084% of 360,000 active; in the data active = activation above about 40%; inconclusive = about 15% to 40%; inactive = below about 15%; further: compound concentration not given in the record; the text of the record calls up to 30% inactive
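Agonist mode: compounds alone added to overnight-plated D2 PathHunter cells for 90 min at 37 C, with 57 uM final dopamine (EC100) defining full response. Beta-arrestin recruitment detected by chemiluminescent reagent, read after 1 h at ambient temperature.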
Six1-Eya2 inh: blocks human Six1 binding to Eya2. AID 651725. 0.56% of 360,000 active. activity change, % (no concentration beside the values). AlphaScreen GST-Six1/His-Eya2 binding, biochemical; hits give low values; control for the full effect not named in the record; in the data active = activity change below about -65%; inconclusive = about -30% to -65%; inactive = above about -30%; further: on the % scale 0 is the no-effect control and ±100 the full control effect; compound concentration not given in the record
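Six1/Eya2 binding was read as AlphaScreen signal after compounds were pinned into GST-Six1 plus His-tagged Eya2 (5X stock 250/500 nM) in pH 8.0 Tris/NaCl/TCEP buffer, beads added, then incubated 1 h, 37 C, dark.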
Numbers without * were called inactive; ? = inconclusive; . = no result given; [ ] = dose if it differs, or a comment.

SMILES	TRPV1 PAM	D2 PAM	Sfp PPTase inh	CtBP-E1A blk	PINK1 modulator	D2 ag	Six1-Eya2 inh
COc1ccc(-n2c(CCc3ccccc3)nnc2SCC(=O)c2ccccc2)cc1	-7	-14	?	-13	24%	-6.9	-6
COc1ccc(-c2nc3c(n2O)CCC/C3=N\O)cc1	3	-12	-7%	2	-0.3%[38.3 µM]	-2.4	-2
CCN1C[C@@H]2[C@@H]3C(=O)N(Cc4ccccc4)C(=O)[C@@H]3[C@](Cc3ccccc3)(C(=O)OC)N2C1=NCc1ccccc1	.	.	.	-3	-0.3%	-2.0	2
Cc1ccc2ccccc2c1NC(=O)CNCc1ccccc1	.	-2	.	1	0.4%	0.0	-1
CC1(C)CC(=O)C2=C(C1)Oc1ncn(CCO)c(=N)c1C2c1ccccc1 (stereo not given)	3	1	17%	15	-2.2%	-0.6	1
COc1ccc(/C(O)=C2/C(=O)C(=O)N(CCN3CCNCC3)C2c2cccc([N+](=O)[O-])c2)cc1 (stereo not given)	0	-3	14%	-3	-0.9%	-5.7	1
COc1ccc(N2CCN(CC(=O)Nc3ccc(C)c(C)c3)CC2)cc1	-8	-4	6%	-26	0.3%	0.6	-20
Cc1ccc(-c2nnc(CCC(=O)NCC3C4CC5CC(C4)CC3C5)o2)s1 (stereo not given)	-12	-4	-2%	5	0.8%	1.4	3
CC[C@H](C)[C@H]1CNC(=S)N1CC1CCN(CCCC2CCCC2)CC1	.	-21	.	-3	-0.6%	-2.0	1
COc1ccc(CN(C(=O)CSc2nnc(-c3ccccc3F)o2)c2ccc(F)cc2)cc1	1	-23	-3%	6	.	-1.7	-2
Cc1csc(SCC(=O)NC(=O)NC2CCCC2)n1	0	4	-5%	1	-0.2%	-0.9	17
CC1=C(C(=O)NCCc2ccc(C)cc2)C2(CCC(C)CC2)OC1=O (stereo not given)	-3	-3	29%	8	7.4%	-2.0	-3
CCSc1nc(N)c2c(C)c(C)sc2n1	-9	-2	15%	9	2.8%	-2.2	17
CCc1nc2ccccc2c(=O)n1/N=C/c1ccc(OC)cc1	.	-5	.	2	5.2%	-7.1	2
COCCCNC(=O)CCN1C(=O)COc2ccccc21	-14	-4	9%	11	-1.6%[38.3 µM]	2.4	8
Cc1cc(C[n+]2cc(Br)ccc2N)c2ncccc2c1	-4	-16	3%	-7	-1.6%	-2.1	-6
N=c1sccn1CC(=O)NC(=O)NC1CCCC1	-19	-18	-1%	2	1.2%	-1.5	13
CCOCCCNC(=O)c1c[nH]c2ccc(OCC)cc2c1=O	0	0	15%	-2	2.8%	-1.0	-2
CCc1ccc(NC(=O)C2CCN(S(=O)(=O)c3ccc4c(c3)N(C(C)=O)CCO4)CC2)cc1	-7	-9	15%	.	0.8%	-3.5	3
CN(C)S(=O)(=O)N(CC(=O)Nc1ccc(F)c(F)c1)c1ccccc1	18	-5	26%	15	6.1%[38.3 µM]	0.3	-3
Cc1ccc(CNC(=O)c2ccc(OCC3CCCO3)cc2)cc1 (stereo not given)	-4	13	5%	6	1.0%	-1.7	7
COC(=O)C1CCN(C(=O)c2ccc3nccnc3c2)CC1	-6	11	7%	1	-0.1%	0.4	1
Cc1ccc(S(=O)(=O)N2CCN(c3ccnc4cc(Cl)ccc34)CC2)cc1C	-4	-5	-12%	-7	3.0%	2.9	-11
CCCOc1ccc(N2C(=O)CC(N(CCCO)C(=O)CC)C2=O)cc1 (stereo not given)	3	-7	-3%	4	-2.6%	1.2	-24
COc1cc(/C=C2/SC(=S)N(Cc3ccccc3)C2=O)ccc1OS(C)(=O)=O	-7	-5	4%	-21	1.9%	-4.6	-20
CN(C(=O)CSc1nnnn1-c1ccccc1)C1CCS(=O)(=O)C1 (stereo not given)	-1	3	8%	6	0.4%	-1.0	5
Cc1ccc(OC(=S)Nc2ccccc2)c(C)c1	1	-11	11%	-3	-1.6%	-1.0	1
CC(=O)OCc1nc2ccccc2s1	6	-1	26%	-10	9.5%[38.3 µM]	2.1	-11
CC(NC(=O)COC(=O)c1ccco1)c1ccccc1 (stereo not given)	-1	-8	16%	-4	0.4%	-1.2	10
C=CCn1c(COc2ccc(Cl)cc2)nnc1SCC(=O)N/N=C/c1ccccc1	.	2	13%	-3	-1.8%	1.7	6
O=C(c1ccccc1)c1cccn1CC(=O)N1CCCCCC1	-2	-21	10%	-1	1.0%	-1.2	0
CC(C)C(=O)Nc1ccccc1C(=O)N/N=C/c1ccc([N+](=O)[O-])cc1	4	-16	1%	-1	-0.8%	-0.9	-1
Cc1cccc(C(=O)Nc2cccc(OC(=O)c3cccc(C)c3)c2)c1	7	-13	14%	6	2.4%	-1.9	11
Cc1c(C(=O)N2CCN(Cc3nccn3C)CC2)oc2c(F)cccc12	.	-12	.	-1	-0.7%	-4.0	0
C/C(=C\C(=O)c1c(O)cc(C)oc1=O)N(C)C	2	2	-9%	.	0.7%	-1.0	-1
CC(C)CCc1noc(CN2CCN(CC(=O)NC(C)C)CC2)n1	-6	-6	1%	6	0.6%	-0.7	-3
CCOC(=O)N1CCN(CCC(=O)Nc2cc(OC)ccc2OC)CC1	-1	-5	19%	8	2.5%	-1.0	15
Cc1ccccc1Cn1cnc2ccccc21	1	2	15%	1	3.8%	-1.7	-1
O=C(C1CCN(S(=O)(=O)c2ccc(Br)s2)CC1)N1CCc2ccccc21	-12	2	13%	-10	0.1%	3.8	2
CC1=C[C@H]2OC(=O)[C@@H](C)[C@H]2C[C@@H]2[C@H]1C[C@@H](O)[C@@]2(C)O	-3	-7	8%	-15	-0.4%	-0.3	14
O=C(CC12CC3CC(CC(C3)C1)C2)NC(Cc1ccccc1)C(=O)O (stereo not given)	3	-3	15%	3	-1.4%	-5.3	4
COc1ccc(C)cc1N(C(=O)CNC(=O)c1ccco1)C(C(=O)NCC1CCCO1)c1ccccc1 (stereo not given)	1	2	10%	-2	2.7%	0.9	-1
COc1ccc(F)c(-c2nc(CN3CCN(C(=O)c4ccco4)CC3)c(C)o2)c1	4	-10	-2%	-2	1.7%	-0.7	-1
COc1ccc(N2C(=O)CC(Sc3nc4ccccc4s3)C2=O)cc1OC (stereo not given)	5	-15	-23%	.	0.2%	13	5
COC(=O)C1=C(C)NC2=C(C(=O)CC(C)(C)C2)C1c1ccccn1 (stereo not given)	-13	3	1%	-6	.	-0.3	-1
CN(C(=O)CC1C(=O)NCCN1CC1CCCCC1)C1CCOCC1 (stereo not given)	4	-7	3%	2	-0.3%	3.8	4
Cc1ccc(-c2noc(CCCOc3ccc(Cl)cc3Cl)n2)cc1	3	1	?	55	-1.2%	1.7	68
CCCCCCn1c(N2CCC(C)CC2)nc2c1c(=O)[nH]c(=O)n2C	-10	-13	-14%	11	-1.2%	-1.6	7
CCOc1ccc(CNc2ccc3c(c2)ncn3C(C)(C)C)cc1	-1	-34	-1%	.	-0.1%	-8.7	-19
O=C(c1ccc(Cl)cc1)N(c1ccccn1)C1CCCCC1	2	-7	8%	-2	3.8%	-6.2	13
O=c1c2ccccc2c(-c2ccccc2)nn1-c1cc(Cl)cc(Cl)c1	5	-5	-5%	-10	6.9%	-2.1	0
O=C(O)C1C2CCC(C2)C1C(=O)NCCc1ccccc1 (stereo not given)	-3	-1	9%	15	1.9%	-1.0	2
COc1cccc(CNC(=O)c2cc(C3CC3)nc3c2cnn3C(C)C)c1	-7	10	.	0	?	8.5	-3
C=C1CCN(CC(=O)OC)S(=O)(=O)c2ccccc21	13	-3	-6%	4	0.0%	-0.2	13
Cc1cccc(NC(=O)c2ccc(Cl)c(S(=O)(=O)N3CCCCCC3)c2)n1	5	-11	.	19	1.0%	-3.0	1
COC(=O)c1sccc1NC(=O)c1ccc2c(c1)OCO2	-10	1	17%	8	6.2%[38.3 µM]	-0.4	3
CCOC(=O)C(NC(=O)CC(C)C)(Nc1sc(C)c(CC)c1C#N)C(F)(F)F (stereo not given)	-11	-11	14%	8	-1.7%	4.4	6
O=C(CN1C(=O)C(=O)c2ccccc21)NCCc1ccccc1	24	-28	-16%	-3	-0.5%	-19	8
O=C(NNC(=S)NC(=O)c1ccccc1)c1ccc([N+](=O)[O-])cc1	?	-51	?	.	1.5%	-10	5
CCN(CC)C(=O)C1=C(C)N(Cc2ccc(C(C)(C)C)cc2)C(=O)C(CC(=O)NCCCN(C)C)C1 (stereo not given)	.	-4	.	5	-0.4%	-8.0	7

Gathered by group: those above containing an NH in an aromatic ring.
SMILES	TRPV1 PAM	D2 PAM	Sfp PPTase inh	CtBP-E1A blk	PINK1 modulator	D2 ag	Six1-Eya2 inh
CCOCCCNC(=O)c1c[nH]c2ccc(OCC)cc2c1=O	0	0	15%	-2	2.8%	-1.0	-2
CCCCCCn1c(N2CCC(C)CC2)nc2c1c(=O)[nH]c(=O)n2C	-10	-13	-14%	11	-1.2%	-1.6	7

Compounds shown so far that have a tert-butyl group, in the order listed:
SMILES	TRPV1 PAM	D2 PAM	Sfp PPTase inh	CtBP-E1A blk	PINK1 modulator	D2 ag	Six1-Eya2 inh
CCOc1ccc(CNc2ccc3c(c2)ncn3C(C)(C)C)cc1	-1	-34	-1%	.	-0.1%	-8.7	-19
CCN(CC)C(=O)C1=C(C)N(Cc2ccc(C(C)(C)C)cc2)C(=O)C(CC(=O)NCCCN(C)C)C1 (stereo not given)	.	-4	.	5	-0.4%	-8.0	7

The listing continues:
SMILES	TRPV1 PAM	D2 PAM	Sfp PPTase inh	CtBP-E1A blk	PINK1 modulator	D2 ag	Six1-Eya2 inh
CC(C)(C)c1ccc(OCCC(=O)OCC(=O)NC(=O)NC2CCCC2)cc1	8	-6	.	?	8.3%	-1.3	1
Cc1cc(C)n2nc(C(=O)Nc3cccc(S(=O)(=O)N4CCCC4)c3)nc2n1	9	-10	13%	-9	1.2%	-2.4	-11
O=C(N/N=C\c1cc2c(cc1Cl)OCO2)c1ccc(Br)s1	9	-3	-3%	-14	1.0%	-4.2	0
CC(C)(C)OC(=O)[C@H](Cc1ccccc1)NC(=O)c1nc[nH]c1C(=O)NC1CCNCC1	25	-11	.	-1	-0.3%	0.2	-1
N=c1c(S(=O)(=O)c2ccccc2)cc2c(=O)n3ccccc3nc2n1Cc1cccnc1	-1	-67	.	1	0.5%	-4.6	-4
CC(=O)Oc1ccc(C(=O)NCCc2ccccc2)cc1	14	-11	15%	16	-0.6%	-1.3	1
CN(C(=S)Oc1ccc(C(=O)Nc2ccccc2)cc1)c1ccccc1	-14	1	3%	21	1.8%	-0.7	3
COc1cc(C(=O)NC(=S)Nc2ccc3oc(=O)ccc3c2)cc(OC)c1OC	0	-3	-3%	1	.	-2.0	5
Cc1cc(Nc2ccc(F)cc2Cl)n2nc(C)nc2n1	1	1	7%	1	4.1%	0.3	3
